Assay outcomes deposited in PubChem by National Center for Advancing Translational Sciences (NCATS).
D2 PAM = Beta-Arrestin HTS for Positive Allosteric Modulators of the Human D2 Dopamine Receptor: Potentiators; D(2) dopamine receptor (Homo sapiens), P14416; DiscoveRx D2 beta-arrestin cells, luminescence, 90 min; 100% = 57 uM dopamine signal; potentiation, % (no concentration beside the values); 360,000 tested, 0.23% active; AID 624464, 2012; active = potentiation of 50% or more; inconclusive = 30% to 50%; inactive = 30% or less;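 also: compound concentration not given in the record; tested on top of an EC20 dose of dopamine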
Target sequence (P14416 whole entry, looked up): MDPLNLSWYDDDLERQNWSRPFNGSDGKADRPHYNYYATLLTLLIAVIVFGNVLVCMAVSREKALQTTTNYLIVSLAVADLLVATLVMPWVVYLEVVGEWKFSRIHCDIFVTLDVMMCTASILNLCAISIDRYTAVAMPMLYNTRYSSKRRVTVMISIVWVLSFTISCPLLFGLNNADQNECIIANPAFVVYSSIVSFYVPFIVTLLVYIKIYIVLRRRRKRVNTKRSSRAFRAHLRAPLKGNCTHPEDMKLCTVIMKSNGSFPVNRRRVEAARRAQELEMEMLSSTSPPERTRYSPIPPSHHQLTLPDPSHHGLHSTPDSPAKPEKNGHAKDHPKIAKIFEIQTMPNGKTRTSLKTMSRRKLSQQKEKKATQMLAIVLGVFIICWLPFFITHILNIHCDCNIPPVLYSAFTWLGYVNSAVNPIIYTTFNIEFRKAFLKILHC
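PathHunter beta-arrestin assay in DiscoveRx D2 cells. Compounds were added with an EC20 of dopamine (50 nM final) for 90 min at 37 deg C. Luminescence was read 1 h after detection reagent, with 57 uM dopamine as the EC100 control.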
PINK1 expr mod = A Quantitative High throughput Screen to Identify Chemical Modulators of PINK1 Expression; PINK1 immunofluorescence, high-content cytometry, 24 h; Potency, µM (top dose mostly 76.6 µM), inactives show at the highest dose activation (PINK1 increase), most hits filed as activators; 410,000 tested, 0.2% active; AID 624263, 2012; active = well fitted activation curve with a large enough effect; inconclusive = small, poorly fitted or top-dose-only effect; inactive = flat fitted curve, though single readings scatter; cell line not stated here;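 also: potency is read from the fitted curve at half-maximal effect; % of control where 0% means no effect; nearly all actives have a fitted effect of over 65% in size; a mitochondrial uncoupler was the plate control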
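Readout is PINK1 immunofluorescence, quantified alongside mitochondrial, cell and nuclear markers by laser-scanning microplate cytometry. Cells from a stable line were exposed to compound titrations (5 concentrations) for 24 hours, with CCCP controls.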
TRPML1 ag = qHTS for Agonists of the Human Mucolipin Transient Receptor Potential 1 (TRPML1). Mucolipin-1 (Homo sapiens), Q9GZU1. TRPML1-expressing cells, Ca2+ dye fluorescence, FDSS; host cell line not named in the record; reference of the full effect not given here. activation, % (no concentration beside the values). 410,000 tested, 0.12% active; in the data active = activation above about 50%; inconclusive = about 30% to 50%; inactive = below about 30%; also: 0% is about no effect; the text of the record puts the active cut at 80%
Target sequence (Q9GZU1 whole entry, looked up): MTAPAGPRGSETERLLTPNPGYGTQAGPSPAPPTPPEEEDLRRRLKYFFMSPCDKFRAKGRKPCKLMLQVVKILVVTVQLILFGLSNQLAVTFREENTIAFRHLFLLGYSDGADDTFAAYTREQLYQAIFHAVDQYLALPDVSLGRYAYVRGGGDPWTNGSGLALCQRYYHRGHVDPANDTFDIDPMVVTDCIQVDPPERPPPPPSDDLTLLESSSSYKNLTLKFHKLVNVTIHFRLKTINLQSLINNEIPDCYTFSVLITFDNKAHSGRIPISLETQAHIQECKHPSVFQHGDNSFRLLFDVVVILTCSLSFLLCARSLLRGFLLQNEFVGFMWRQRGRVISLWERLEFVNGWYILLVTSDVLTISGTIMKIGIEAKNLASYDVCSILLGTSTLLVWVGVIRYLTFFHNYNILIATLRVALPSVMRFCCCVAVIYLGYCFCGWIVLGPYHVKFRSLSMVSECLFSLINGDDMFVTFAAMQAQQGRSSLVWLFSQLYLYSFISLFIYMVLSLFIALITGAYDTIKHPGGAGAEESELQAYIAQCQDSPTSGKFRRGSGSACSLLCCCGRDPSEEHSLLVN
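Tet-induced TRPML1-DL cells, 1,500 per well, cultured overnight, were loaded with a no-wash Ca2+ dye for 45–90 min. Calcium fluorescence was recorded on the FDSS for 110 s after compound addition, before the EC80 agonist (4 uM 54-4) was added.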
Six1-Eya2 blk = qHTS Assay for Inhibitors of the Six1/Eya2 Interaction. AlphaScreen GST-Six1/His-Eya2 binding, biochemical; hits give low values; control for the full effect not named in the record. Homeobox protein SIX1 (Homo sapiens) + Protein phosphatase EYA2 (Homo sapiens), …. activity change, % (test concentration not listed). 360,000 tested, 0.56% active; in the data active = activity change below about -65%; inconclusive = about -30% to -65%; inactive = above about -30%; also: % is scaled to controls: 0 for no effect and ±100 for the full control effect; compound concentration not given in the record
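Homogeneous AlphaScreen proximity assay pairing GST-Six1 with His-tagged Eya2 (added as 5X mix: 250 nM and 500 nM) in 50 mM Tris pH 8.0, 300 mM NaCl, 1 mM TCEP. Glutathione donor and nickel acceptor beads; 1 h, 37 °C, dark.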
CtBP-E1A blk = qHTS Assay for Inhibitors of the CtBP/E1A Interaction; CtBP / adenovirus E1A interaction (AlphaScreen); AlphaScreen GST-E1A/His-CtBP binding, 1536-well; hits give low values; control for the full effect not named in the record; activity change, % (no concentration beside the values); 340,000 tested, 0.49% active; in the data active means activity change below about -65%; inconclusive means about -30% to -65%; inactive means above about -30%; also: % is scaled to controls: 0 for no effect and ±100 for the full control effect; compound concentration not given in the record
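In 5 uL wells, 23 nL compound meets equimolar GST-E1A and His-CtBP (5X stock 125 nM each) for 2 h, 37 °C. Beads (5X, 50 ug/mL) then 1 h, 37 °C, dark.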
D2 agonist = Beta-Arrestin HTS for Positive Allosteric Modulators of the Human D2 Dopamine Receptor: Agonists; 360,000 tested, 0.084% active; D(2) dopamine receptor (Homo sapiens), P14416; AID 624465, 2012; activation, % (test concentration not listed); DiscoveRx PathHunter D2 beta-arrestin, luminescence, 90 min; 100% = 57 uM dopamine signal; in the data active = activation above about 40%; inconclusive = about 15% to 40%; inactive = below about 15%; also: compound concentration not given in the record; the text of the record calls up to 30% inactive
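Agonist mode: compounds alone added to overnight-plated D2 PathHunter cells for 90 min at 37 C, with 57 uM final dopamine (EC100) defining full response. Beta-arrestin recruitment detected by chemiluminescent reagent, read after 1 h at ambient temperature.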
* hit, by the source's call; ? = inconclusive; . = not tested or not shown; [ ] = dose if it differs, or a comment.

SMILES | D2 PAM | PINK1 expr mod | TRPML1 ag | Six1-Eya2 blk | CtBP-E1A blk | D2 agonist
O=c1c2c(O)cc(O)cc2oc2ccc(O)c(O[C@@H]3O[C@H](CO)[C@@H](O)[C@H](O)[C@H]3O[C@H]3O[C@H](CO)[C@@H](O)[C@H](O)[C@H]3O)c12 | -34 | 0.8% | . | -1 | 6 | -7.7
COc1ccccc1C(=O)NCCC(=O)NN1C(=O)NC2(CCCCC2)C1=O | -11 | -0.3% | -0.3 | 1 | 10 | -2.0
CCOC(=O)c1cnn2c(N)c(C#N)nnc12 | -5 | 2.9%[38.3 µM] | 1.4 | -3 | -19 | -1.4
CCOc1ccc(NC(=O)C2=NN(c3ccccc3)C(=O)CC2)cc1S(=O)(=O)N1CCCCC1 | -3 | -0.2% | 0.5 | -2 | 6 | -2.3
Cc1ccc(S(=O)(=O)N2CCN(C(=O)n3ccnc3)CC2)cc1 | 2 | -1.4% | 0.1 | 3 | -2 | -2.4
O=C(NCCCN1CCN(c2ccccc2F)CC1)C1CCN(S(=O)(=O)c2cccs2)CC1 | 18 | 1.6%[38.3 µM] | 0.4 | 2 | -4 | ?
O=C(NCCCc1nc2ccccc2[nH]1)c1cccs1 | -29 | 4.3% | 0.4 | 4 | -3 | -3.3
O=C(Cc1ccccc1)NCCS(=O)c1ccc(Cl)cc1 (stereo unspecified) | -9 | 0.1% | 1.0 | 25 | 0 | -0.8
O=C1NC[C@@H](CCCCN2C[C@H](Cc3ccc(O)cc3)N(Cc3ccccc3)C(=O)C2=O)N(Cc2ccccc2)C1=O | . | -0.2% | -0.5 | -8 | -3 | .
CCOC(=O)C1=C(C)NC(=O)NC1c1cc(Br)c(O)c(OC)c1 (stereo unspecified) | 8 | -1.0% | -1.0 | -5 | 1 | -0.1
O=C(NC(=S)NNC(=O)c1ccccc1O)c1cccc([N+](=O)[O-])c1 | -6 | 1.5% | -0.1 | -77* | -90* | 4.4
O=C(NCCNC(=O)c1cc(OCC(F)(F)F)ccc1OCC(F)(F)F)Nc1ccc(Cl)cc1 | 8 | 29%[38.3 µM] | -0.1 | 0 | -2 | -0.2
COC(=O)c1c(-c2ccc(N(C)C)cc2)oc2c1C(OC)CCC2 (stereo unspecified) | . | 2.1% | -0.9 | 7 | 1 | .
CCn1c(O)c(/C=N/N=C/c2ccccc2)c2ccc(C3=NNC(=O)CC3)cc21 | -5 | 4.9% | 5.3 | -5 | -19 | 2.9
O=C(NCc1ccc2c(c1)OCO2)c1nnc(Cc2ccc(F)cc2)o1 | -7 | 0.3% | -0.9 | 3 | 2 | -1.8
CC(=O)c1oc2ccccc2c1NC(=O)CCCN1C(=O)c2ccccc2C1=O | 1 | 0.5% | -0.1 | 2 | 1 | 0.5
COc1cccc(OCc2cc(C(=O)N3CCN(c4ccccc4OC)CC3)no2)c1 | -14 | 4.5% | 1.5 | 0 | . | 2.8
CCc1ccc(C(=O)NNC(=O)CCc2nc3ccccc3c(=O)[nH]2)cc1 | -1 | 0.6% | -0.5 | -2 | -1 | -1.1
CCCCCn1c(SCC#N)nc2cc(C(=O)NCC3CCCO3)ccc2c1=O (stereo unspecified) | -7 | 12% | -1.1 | 18 | 21 | -1.2
Cc1ccc(SCC(=O)OCC(=O)N(CCC#N)c2ccccc2)cc1 | 5 | -0.8% | 0.6 | -3 | 3 | -5.6
CC(NS(=O)(=O)c1ccc2c(c1)OCCO2)c1ccccc1 (stereo unspecified) | -2 | 1.3% | -1.0 | 10 | 2 | 1.6
COC(=O)c1ccc(OCC(O)CN2CCC(C)CC2)cc1 (stereo unspecified) | -3 | 0.9% | -0.3 | 1 | 0 | -2.0
O=C(CC1C(=O)NCCN1Cc1ccccc1C(F)(F)F)NC1CCCC1 (stereo unspecified) | -4 | 5.5% | 0.4 | 2 | 1 | -5.1
O=C(NC1CCCC1)c1cccc(S(=O)(=O)N2CCCC2)c1 | 0 | 1.1% | 0.0 | 1 | 1 | -1.0
CN(C(=O)c1cccc(C#CC(C)(C)O)c1)C1CCCN(Cc2ccccc2F)C1 (stereo unspecified) | -5 | 2.2% | 0.4 | -5 | 6 | -3.2
More structures
SMILES | D2 PAM | PINK1 expr mod | TRPML1 ag | Six1-Eya2 blk | CtBP-E1A blk | D2 agonist
COC(=O)CC(=O)CSc1nc2c(cc1C#N)CCC2 | -5 | ? | 0.8 | -1 | 0 | -3.1
Cc1ccc(C(C)C)c(OCc2ccc(C(=O)N/N=C/c3ccc(C(=O)O)cc3)cc2)c1 | -11 | -0.6% | 1.2 | -7 | . | -3.3
CCCC(NC(=O)Cc1c(C)c2c(cc(C)c3c(C)coc32)oc1=O)C(=O)O (stereo unspecified) | -8 | 1.2% | 0.7 | -6 | . | 1.2
CCOC(=O)c1nnn(-c2nonc2-n2cccc2)c1CN1CCCCC1 | -22 | 1.7% | 3.0 | 14 | -2 | 0.2
Cc1cccc(NC(=O)CNC(=O)COc2ccc(-c3ccc(C#N)cc3)cc2)c1C | -1 | -0.6% | 0.9 | -13 | -20 | -3.3
CCOC(=O)N(NC(=O)C(O)(c1ccccc1)c1ccccc1)c1ccccc1 | -12 | 2.6% | 0.6 | 14 | 12 | -5.0
O=C(/C=C/c1ccc2c(c1)OCO2)Nc1c(C(=O)O)[nH]c2ccccc12 | 0 | ? | 0.3 | -5 | 6 | -4.6
NC(=O)COc1ccc(Cc2ncc(C(F)(F)F)cc2Cl)cc1 | 5 | 2.4% | -0.3 | 7 | 6 | -2.2
CCN(CC)S(=O)(=O)c1ccc(N2CCN(c3cccc(OC)c3)CC2)c([N+](=O)[O-])c1 | -2 | 1.4% | 0.7 | ? | ? | -5.2
Cc1cccc(C(=O)NNC(=O)c2ccccc2C)c1 | -4 | 0.2% | 2.4 | 0 | 3 | -3.4
CCOc1ccc(NC(=S)N/N=C(\C)Cc2ccc(OC)cc2)cc1 | -11 | 0.4% | 1.2 | -8 | -23 | 1.0
O=C(CSc1nnc(Cc2ccccc2)n1Cc1ccccc1)NCc1ccco1 | -13 | -1.1% | -0.6 | -3 | 1 | -2.4
CCC(C)[C@H](NC(=O)NCc1ccco1)C(=O)O (stereo partly specified) | -6 | ? | -0.5 | 2 | 7 | -0.2
COc1ccc(C(CNC(=O)c2ccc(S(=O)(=O)N(C)C)cc2)N2CCCC2)cc1 (stereo unspecified) | -8 | -0.1% | -0.5 | 1 | 5 | -4.4
CCN(CC)CCOC(=O)/C=C/c1ccccc1OC | -19 | -1.9% | -1.4 | 5 | 6 | -6.2
CNC(=S)N(Cc1cc2cc(C)cc(C)c2[nH]c1=O)C1CCCC1 | -26 | 3.7% | -0.1 | -10 | -2 | -0.8
COc1ccc(-c2oc3c(c2C#CC2(O)CCCCC2)C(OC(C)=O)CCC3)cc1 (stereo unspecified) | . | 0.9% | 0.0 | -3 | 4 | .
O=C(NCC1CCCO1)c1ccc2c(c1)S(=O)(=O)c1ccccc1C2=O (stereo unspecified) | 16 | 0.8% | -0.7 | 1 | -1 | 6.2
Cc1ccc(C(O)c2ncc(-c3cccc(C(F)(F)F)c3)[nH]2)cc1 (stereo unspecified) | -11 | 3.7% | -0.7 | -1 | -5 | -2.9
COc1ccc(-n2ncc3c2CC(C)(C)CC3NC(=O)Cc2nonc2C)cc1 (stereo unspecified) | -4 | -0.3% | 0.0 | 5 | . | 1.9
O=c1ccc(-c2ccc(S(=O)(=O)N3CCN(c4ccccc4)CC3)o2)n[nH]1 | -9 | 8.1% | 0.0 | -1 | -4 | -0.2
CCN(CC)c1ccc2c(C)c(-c3ccc(N)cc3)c(=O)oc2c1 | -20 | -2.0% | 2.0 | 8 | 8 | -1.2
N#Cc1nc(COc2ccccc2)oc1NCCN1CCOCC1 | -4 | -0.3% | -0.1 | 0 | 0 | -8.5
CCc1nc(SCC(=O)NCCc2ccc(OC)c(OC)c2)c2c(=O)n(C)c(=O)n(C)c2n1 | -5 | 1.5% | 0.1 | -1 | 5 | -2.2
CCC(=O)N1CCC1(C)C(=O)Nc1cc(OC)ccc1OC (stereo unspecified) | -10 | 3.0% | -0.4 | 0 | 3 | -4.1
Later entries:
SMILES | D2 PAM | PINK1 expr mod | TRPML1 ag | Six1-Eya2 blk | CtBP-E1A blk | D2 agonist
Cc1c(C=O)n(C)n(-c2ccccc2)c1=O | 5 | 2.2% | -0.6 | 16 | 38 | -2.7
COc1ccc(S(=O)(=O)N2CCCC(C(=O)NCC3CCCO3)C2)cc1C (stereo unspecified) | 1 | 0.8% | 0.0 | 1 | 7 | 0.7
O=c1c(-c2ccco2)[n+]([O-])c2ccccc2n1OCc1c(F)cccc1F | -8 | 9.5% | 1.2 | -2 | -5 | -3.4
Cc1cccc2nc3c(nc12)CCCC3 | -14 | 1.0% | 0.4 | -28 | . | 10
CCOC(=O)c1cnc(Nc2nc3ccccc3o2)nc1CSc1ncccn1 | -3 | 6.1% | -0.6 | -23 | ? | -3.2
CCOc1ccc(N2CC(C(=O)Nc3ccc4c(c3)OCCO4)CC2=O)cc1 (stereo unspecified) | -5 | 1.5% | 0.1 | 7 | 0 | -3.2

Some of these compounds in order of count of non-hydrogen atoms, lowest first:
SMILES | D2 PAM | PINK1 expr mod | TRPML1 ag | Six1-Eya2 blk | CtBP-E1A blk | D2 agonist
Cc1cccc2nc3c(nc12)CCCC3 | -14 | 1.0% | 0.4 | -28 | . | 10
Cc1c(C=O)n(C)n(-c2ccccc2)c1=O | 5 | 2.2% | -0.6 | 16 | 38 | -2.7
CCC(=O)N1CCC1(C)C(=O)Nc1cc(OC)ccc1OC (stereo unspecified) | -10 | 3.0% | -0.4 | 0 | 3 | -4.1
N#Cc1nc(COc2ccccc2)oc1NCCN1CCOCC1 | -4 | -0.3% | -0.1 | 0 | 0 | -8.5
O=c1c(-c2ccco2)[n+]([O-])c2ccccc2n1OCc1c(F)cccc1F | -8 | 9.5% | 1.2 | -2 | -5 | -3.4
CCOc1ccc(N2CC(C(=O)Nc3ccc4c(c3)OCCO4)CC2=O)cc1 (stereo unspecified) | -5 | 1.5% | 0.1 | 7 | 0 | -3.2
CCOC(=O)c1cnc(Nc2nc3ccccc3o2)nc1CSc1ncccn1 | -3 | 6.1% | -0.6 | -23 | ? | -3.2
CCc1nc(SCC(=O)NCCc2ccc(OC)c(OC)c2)c2c(=O)n(C)c(=O)n(C)c2n1 | -5 | 1.5% | 0.1 | -1 | 5 | -2.2

Random draw from the library; any-hit rate near 1.3%.
